From PubChem BioAssay
VACV E9 pol inh: inhibitors of vaccinia virus processive DNA synthesis (E9 polymerase). in vitro processive DNA synthesis, absorbance read-out; active compounds read low; some inactives read as strong as hits. normalized absorbance, % (test concentration not listed). 46,000 tested, 0.94% active. AID 493162;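 active = replicate mean up to 90% and picked by the depositor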;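 note: 100% = median of the test wells of a plate; 100 nL library stock went into each well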
Active calls of the source: *. The list is partial; rates above refer to the full screens.

Start of the data: the first 7 compounds, ahead of the listing:
SMILES	VACV E9 pol inh
CC(=O)NCC(=O)Nc1ccc(Br)cc1C(=O)c1ccccc1	94.3
CCOC(=O)c1cc(S(=O)(=O)NC(C)CC)cn1C (stereo unspecified)	99.1
CCOC(=O)c1c(O)cc(C)cc1Nc1ccccc1	100.2
CC1=C(c2ccccn2)Oc2ccccc2O1	95.3
CN(c1ccccc1)S(=O)(=O)Cc1ccccc1	98.8
Cc1ccc(-n2c(O)c(C=NCc3ccncc3)c3ccccc3c2=O)cc1C	99.2
CNC(=O)NCc1c(N(C)C)cccc1N(C)C	99.4

The listing, previewed entries included:
SMILES	VACV E9 pol inh
CC(=O)NCC(=O)Nc1ccc(Br)cc1C(=O)c1ccccc1	94.3
CCOC(=O)c1cc(S(=O)(=O)NC(C)CC)cn1C (stereo unspecified)	99.1
CCOC(=O)c1c(O)cc(C)cc1Nc1ccccc1	100.2
CC1=C(c2ccccn2)Oc2ccccc2O1	95.3
CN(c1ccccc1)S(=O)(=O)Cc1ccccc1	98.8
Cc1ccc(-n2c(O)c(C=NCc3ccncc3)c3ccccc3c2=O)cc1C	99.2
CNC(=O)NCc1c(N(C)C)cccc1N(C)C	99.4
NS(=O)(=O)c1ccc(NC(=O)c2ccc(Cl)s2)cc1	105.1
Cc1ccc2oc(=O)c(CCC(=O)O)nc2c1	100.1
CC(=O)N(Cc1cccc(Br)c1)c1ccc2oc(-c3ccc(C)cc3)nc2c1	99.9
Cc1ccc(-c2[nH]c(-c3ccc(F)cc3)nc2SCC(=O)NCC2CCCO2)cc1 (stereo unspecified)	101.3
COC(=O)c1cn(-c2ccccc2)nc1-c1cccnc1	100.3
CC(C)c1ccc(NC(=O)COC(=O)C2CCCCC2)cc1	101.6
COc1ccc2c(ccc(/C=C3\Sc4ccccc4N3C)[n+]2C)c1	19.8*
Cc1ccc(F)cc1N1C(=O)COCC1=O	95.8
Cc1ccc(NC(=S)N(CCc2ccccc2)Cc2ccccc2)cc1	100.4
Cc1cc(C)nc(NCC(O)CNc2ccccc2C)n1 (stereo unspecified)	96.9
CCOc1ccc(C2CC(=O)NC(SCC(=O)Nc3ccccc3Cl)=C2C#N)cc1 (stereo unspecified)	101.2
Cc1c(C(=O)N2CCN(c3ccccc3F)CC2)sc2nc3n(c(=O)c12)CCCC3	99.1
O=C(Nc1ncnc2sc3c(c12)CCC3)c1cccs1	99.3
C=C(C)C1Cc2cc3ccc(=O)oc3cc2O1 (stereo unspecified)	102.1
COc1ccc(C2CC3(OCCO3)C3(CCCCC3)O2)cc1 (stereo unspecified)	100.7
CCNC12CC3CC(CC(C3)C1)C2	99.5
CCOC(=O)C1CCCN(C(=O)c2cncc(Br)c2)C1 (stereo unspecified)	100.1
COc1ccc(NC(=O)CSC(=O)c2ccccc2)cc1Cl	70.8

New compounds follow
SMILES	VACV E9 pol inh
COc1ccc(Br)cc1/C=C1\C(=O)NC(=O)N(CCC2=CCCCC2)C1=O	100.1
O=C(c1ccc(Cl)cc1)c1cnc2ccccn12	114.3
CCOc1ccc(-c2cc(C(=O)N3CCc4ccccc4C3)c3ccccc3n2)cc1	97.2
Cc1ccc(C(=O)SC2=NCCS2)cc1	96.6
O=S(=O)(NCCc1ccc(Cl)cc1)c1ccc(F)c(F)c1	100.8
CCN1/C(=C/c2ccc3ccccc3[n+]2CC)Sc2cc(NC(C)=O)ccc21	39.2*
CC(C)(C)c1ccc(S(=O)(=O)Nc2ccc(O)c(C(=O)O)c2)cc1	101.6
NC(Cc1ccc(OC(F)(F)C(F)(F)F)cc1)C(=O)O (stereo unspecified)	93.7
COc1ccc(C(=O)COC(=O)/C=C/c2cccc(C(F)(F)F)c2)cc1	104.6
COc1ccccc1NC(=O)Cn1nc(C(F)(F)F)n(N)c1=S	93.8
O=C(Nc1ccccc1)N1CCCC1c1cccs1 (stereo unspecified)	93.8
O=C(NCC(c1ccc[nH]1)C(F)(F)F)Nc1ccccc1 (stereo unspecified)	100.2
Cc1ccc(C)c(SCC(=O)Nc2cc(C)nn2-c2ccc(F)cc2)c1	79.0
CCN1C(=O)C(=Cc2cccn2-c2ccc(O)cc2)C(=O)N(CC)C1=S	99.4
COc1ccc(C(=O)OCC(=O)Nc2sc3c(c2C#N)CCC3)cc1OC	98.2
O=C(CC(c1ccccc1)c1ccccc1)NC1CCCC1	100.3
CCOC(=O)C(C#N)c1c(F)c(F)c(Br)c(F)c1F (stereo unspecified)	101.9
O=C(NC1CC1)C1Cc2ccccc2CN1S(=O)(=O)c1ccc(F)cc1 (stereo unspecified)	99.2
CCn1c(C)[n+](CC)c2ccc(S(=O)(=O)NC)cc21	98.8
CCC(Sc1ncccc1C(=O)O)C(=O)N1CCCC1 (stereo unspecified)	99.1
NC(N)=NCCN1CCCCCCC1	99.5
O=c1[nH]c2ccc(NS(=O)(=O)c3ccc(Br)cc3)cc2[nH]1	98.1
CC1CCCN(C(=O)COc2ccc(-c3nc4ccccc4s3)cc2)C1 (stereo unspecified)	98.5
O/N=C/c1ccc(-c2ccc(Br)cc2)o1	85.5
Cn1c2ccc(Br)cc2c2nnc(SCC(=O)N=C3NC(=O)CS3)nc21	100.1

The list goes on.
SMILES	VACV E9 pol inh
COc1ccc(-c2c(C#N)nnn2-c2cc(C(F)(F)F)cc(C(F)(F)F)c2)cc1	109.7
Cn1ccnc1C(=O)c1cc(=O)c2ccccc2o1	93.1
O=C(c1ccccc1)c1sc(Nc2ccc3c(c2)OCCO3)nc1-c1ccccc1	89.2
CC1CN(/C(N)=N/S(=O)(=O)c2ccc(Cl)c(Cl)c2)CC(C)O1 (stereo unspecified)	92.2
N#CC(C(N)=O)=C1CCCCCC1	99.4
On1nnc2cc(C(F)(F)F)ccc21	101.4
O=C(Oc1cc(OC(=O)c2ccco2)cc(OC(=O)c2ccco2)c1)c1ccco1	98.7
O=C(c1ccccc1)c1c[nH]c(C(=O)NCCCn2ccnc2)c1	96.3
CC(=O)N1CCc2cc(S(=O)(=O)N3CCCCC3C)ccc21 (stereo unspecified)	101.0
CCOc1ccc(NC(=O)c2cc3cc(Br)ccc3oc2=O)cc1	100.2
O=C(Nc1ccccc1C(=O)NC1CCCCC1)c1ccco1	100.7
Cc1ccc(CN2C(=O)CSc3ccc(NC(=O)Nc4cccc5ccccc45)cc32)cc1	103.4
CCC(CO)NC(=O)c1cn(-c2ccccc2)nc1-c1ccc(Cl)cc1 (stereo unspecified)	105.7
CC(C)c1cc(C(C)C)c(S(=O)(=O)NCc2ccccc2)c(C(C)C)c1	99.9
O=C1CCCCCN1CO	98.4
CC(C)(C)NC(=S)Nc1cc(C(F)(F)F)ccc1N1CCCCC1	91.5
c1ccc(-n2cc3c(c2)CCc2cn(-c4ccccc4)cc2CC3)cc1	101.0
O=c1n(S(=O)(=O)c2ccccc2)c2ccccc2n1S(=O)(=O)c1ccccc1	95.2
O=C(NCc1nnc(SC/C=C/c2ccccc2)o1)c1ccccc1F	99.7
CC(C)N1CCC2(CC1)C(C#N)=C(O)NC1=C2C(=O)CC(C)(C)C1	99.5
CS(=O)(=O)c1sc(C(=O)NC(=S)Nc2ccc(OC(F)(F)F)cc2)c2c1C=CCC2	93.2
COc1cc(OC)c(-c2nc(-c3ccccc3)c(-c3cccs3)[nH]2)cc1OC	100.1
O=C(NCCc1ccc(O)c(O)c1)C(F)(F)F	94.8
O=C(O)CCN1CCCc2ccccc21	93.9
Cc1ccc(CC2SC(=O)NC2=O)o1 (stereo unspecified)	103.1

Further records
SMILES	VACV E9 pol inh
COc1c(Cl)cc(Cl)c(OC)c1C(=O)N1CC(C)OC(C)C1 (stereo unspecified)	81.9
COC(=O)c1cc(-c2ccccc2C(F)(F)F)no1	104.3
CCCCn1c(=NC(=O)C(C)Oc2ccccc2)c(C(=O)OCC)cc2c(=O)n3ccccc3nc21 (stereo unspecified)	107.3
FC(F)(F)c1cnc2c(c1)Nc1ccccc1S2	95.9
O=c1ccc2c(C(F)(F)F)cc(C(F)(F)F)nc2[nH]1	101.6
COc1ccc(C2C3CCC=C3C(C#N)=C(N)C2(C#N)C#N)cc1 (stereo unspecified)	86.4
O=C(CCC(=O)N1CCOc2ccccc21)N1CCCCC1	102.3
Cc1ccc2c(c1)N(CC(=O)NC1CCCCC1C)C(=O)CO2 (stereo unspecified)	100.0
CCOC(=O)c1ncn(Cc2ccccc2)c1N	100.2
Cc1ccc(C(=O)c2cnc3cc4c(cc3c2N2CCN(C)CC2)OCO4)cc1C	85.4
O=C1/C(=C\c2ccc(Br)o2)CC/C1=C/c1ccc(Br)o1	19.3*
COc1ccc(Cn2c(=O)sc3ccccc3c2=O)cc1	101.0
O[C@H](CN1CCC2(CC1)OCCO2)C(F)(F)F	129.4
CC/C=C\C/C=C\C/C=C\C/C=C\C/C=C\CCCCCC(=O)O	100.4
COC(CNC(=S)Nc1ccccc1Cl)OC	106.6
N#Cc1ccc(Oc2ccccc2)cc1S(=O)Cc1ccccc1 (stereo unspecified)	100.0
COC(=O)c1c(C)nc(C)c(C(=O)OC)c1-c1csc(S(=O)(=O)Nc2ccc(OC)cc2)c1	99.9
O=c1[nH]cnc2c1cnn2Cc1ccccc1	111.9
NC(=O)Cn1c2ccccc2c2nc3ccccc3nc21	97.8
CC1=CCC2C(=O)N(c3ccccn3)C(=O)C2C1 (stereo unspecified)	111.9
Cc1ccc(S(=O)(=O)N(C)CC(=O)Nc2ccc(S(N)(=O)=O)cc2)cc1	100.4
COC(=O)C1=C(N)Oc2cc(C)n(Cc3ccccc3)c(=O)c2C1c1ccncc1 (stereo unspecified)	100.0
CCCc1n(CC(O)COc2ccccc2C)c2ccccc2[n+]1C (stereo unspecified)	100.2
O=C(Nc1cccnc1)c1nc2ncccn2n1	98.1
O=C1c2ccccc2S(=O)c2ccccc2S(=O)(=O)N1Cc1ccccc1 (stereo unspecified)	103.1

Next compounds.
SMILES	VACV E9 pol inh
NC(=O)c1oc2ccccc2c1NC(=O)Cc1cccc2ccccc12	100.8
COc1ccc(S(=O)(=O)N2CCCC2)cc1C(=O)O	96.2
Cc1c(C(=O)N2CCCCC2)sc2nc[nH]c(=O)c12	92.6
CSc1sc(C(=O)O)c(I)c1S(=O)(=O)C(C)C	100.5
CN(C)C(=O)n1nc2c3c(cccc31)C(=O)c1ccccc1-2	68.7
Brc1ccc(C=NC2CCCCC2)cc1	100.0
Cc1[nH]c2ccc(Cl)cc2c(=O)c1CN1CCCCC1	101.0
Cc1oc2c(CN(C)C)c(O)ccc2c(=O)c1-c1cnn(-c2ccccc2)c1	101.3
CS(=O)(=O)Cc1cc(F)cc2c1OCOC2	101.4
CC(=O)Oc1ccccc1C(=O)NC(C)c1ccccc1 (stereo unspecified)	99.3
Cc1c(C)c(C)c(CSc2cccc(NC(=O)/C=C/C(=O)O)c2)c(C)c1C	98.2
COc1ccc(OC)c(S(=O)(=O)c2cc3ccccc3oc2=O)c1	100.0
COc1c(C=O)c(O)cc2c1C(=O)c1ccccc1C2=O	100.4
O=C(NCc1ccccc1Cl)C(Cc1ccccc1)n1cccc1 (stereo unspecified)	104.5
COc1ccc(Cl)cc1C(=O)CSc1cc(C)c2ccccc2n1	95.8
O=S(=O)(NCCN1CCOCC1)c1cccs1	95.4
COC(=O)N1c2ccccc2C=CC1C#N (stereo unspecified)	99.9
O=C(Oc1ccc(Oc2ccccc2)cc1)N1CCC(OC(=O)n2ccnc2)CC1	90.3
O=C(Cn1cnc2c(nnn2-c2cccc(Cl)c2)c1=O)N1CCCc2ccccc21	102.6
N/C(=N\C(=S)Nc1cc(Cl)ccc1Cl)c1ccccc1	103.7
CN1C(=O)S/C(=C\c2ccc(-c3ccc(C(=O)O)c(Cl)c3)o2)C1=O	97.5
Cc1ccc(-c2nc(C(=O)N(C)c3cc(C)ccc3C)c3n2CCCCC3)cc1	103.2
CN(CCC#N)C(=O)c1cc(-c2cccs2)nc2ccccc12	87.2
Cc1c(O)ccc2c(=O)c(-c3ccc4ccccc4n3)coc12	103.8
Cc1ccccc1Cn1c(CNC(=O)C(C)(C)C)nc2ccccc21	101.0

Further compounds
SMILES	VACV E9 pol inh
CC(C)Cc1cc(C(=O)Nc2cccnc2)no1	98.8
O=C(CSc1ncnc2sc(-c3ccccc3)cc12)N1CCOCC1	101.1
CC(C)Cn1c(=O)c2sccc2n2c(=S)sc(-c3ccccc3)c12	98.2
CN(Cc1ccccc1)Cc1ccccc1F	99.4
c1ccc(-c2csc3ncnc(N4CCCC4)c23)cc1	89.8
Cc1ccccc1NC(=O)CCC(=O)Nc1ccccc1C	100.2
CCN(c1cccc(C)c1)S(=O)(=O)c1ccc2c(c1)SC(C)C(=O)N2 (stereo unspecified)	103.4
FC(F)(F)c1cc(-c2nnc(N3CCOCC3)o2)cc(C(F)(F)F)c1	105.9
Cc1cc2nc(SCC(=O)NN)[nH]c2cc1C	99.9
CCOC(=O)c1nc2c(o1)NC(N)=C(C#N)C2c1ccc(Cl)cc1 (stereo unspecified)	99.7
Cc1ccc(-c2cc(Cc3ccccc3)c(=O)[nH]n2)cc1	101.5
CCCCC(=O)NC1=C(C(=O)OC)SCC1	101.1
COc1ccc(OC)c(NC(=O)COc2ccccc2)c1	97.4
COC(=O)c1ccc(OC(=O)CCN2C(=O)c3ccccc3C2=O)cc1	100.4
CN(C)CCOC(=O)C1(c2ccccc2)CCCC1	109.8
Cc1nc(S(=O)(=O)N2CCN(C3c4ccccc4-c4ccccc43)CC2)cn1C	91.9
Cc1cc(C)cc(N(CC(=O)O)S(=O)(=O)c2c(C)n[nH]c2C)c1	91.2
CN1C(=O)c2cccc3cccc(c23)[S+]1c1ccccc1C(=O)O (stereo unspecified)	104.8
COc1cccc(Cc2nnc(-c3c(-c4ccccc4)noc3C)o2)c1	106.0
Cc1cc(N2CCC(C(=O)N3CCOCC3)CC2)n2nc(C)c(-c3ccc(Cl)cc3)c2n1	102.1

Part of the list above in order of molar mass, rising.
SMILES	VACV E9 pol inh
CNC(=O)NCc1c(N(C)C)cccc1N(C)C	99.4
COC(=O)c1cc(-c2ccccc2C(F)(F)F)no1	104.3
COc1ccc(OC)c(NC(=O)COc2ccccc2)c1	97.4
COc1ccccc1NC(=O)Cn1nc(C(F)(F)F)n(N)c1=S	93.8
COC(=O)c1ccc(OC(=O)CCN2C(=O)c3ccccc3C2=O)cc1	100.4
CCOc1ccc(NC(=O)c2cc3cc(Br)ccc3oc2=O)cc1	100.2
O=C1/C(=C\c2ccc(Br)o2)CC/C1=C/c1ccc(Br)o1	19.3*
O=C(Oc1ccc(Oc2ccccc2)cc1)N1CCC(OC(=O)n2ccnc2)CC1	90.3
